Bioassay records from PubChem.
Vaccinia inh = blocks a specific stage of Vaccinia orthopoxvirus infection; actives 0.01% (n = 89,000); AID 1053133; activity change (mCherry), % (test concentration not listed); Vaccinia-infected cells, mCherry/Venus stage reporter fluorescence; active compounds read low; some inactives read as strong as hits;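 active = mCherry past -33% and 40 or more points under the early reporter, replicates agreeing; inconclusive = past -33% without that gap or agreement; tested in A549 cells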;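 note: scaled between vehicle wells and reference inhibitor wells; 23 nL library stock went into each well; one replicate is shown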
Vaccinia inh Venus = recorded beside Vaccinia inh, whose call it bears; activity change (Venus), %; measured here: Venus reporter, other viral stage;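 negative = less Venus signal; first of two replicates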
Active calls of the source: *; ? = inconclusive; . = not tested or not shown; & = joins results of further samples. The list is partial. The share of hits here may be higher or lower than overall.

SMILES | Vaccinia inh | Vaccinia inh Venus
COc1ccc(CN(C)C[C@H]2OCCCC[C@@H](C)Oc3ccc(NC(=O)Nc4ccc(OC)cc4)cc3C(=O)N([C@@H](C)CO)C[C@H]2C)cc1 | ? | .
CCNC(=O)C[C@@H]1CC[C@H]2[C@@H](COC[C@H](O)CN2C(=O)C2CC2)O1 | 1.1 | 6.3
CC(C)NC(=O)N(C)C[C@@H]1OCCCC[C@@H](C)Oc2ccc(NC(=O)Cc3ccccc3)cc2C(=O)N([C@@H](C)CO)C[C@H]1C | 8.9 | 2.9
COC(=O)C[C@@H]1C[C@H]2c3cc(NC(=O)CN(C)C)ccc3O[C@H]2[C@@H](CO)O1 | 4.0 | 7.6
COc1ccc(CN(C)C[C@H]2Oc3ccc(NC(=O)C4CCCCC4)cc3CC(=O)N([C@H](C)CO)C[C@H]2C)cc1 | -10.5 | 2.5
COc1cccc(-c2ccc3c(c2)O[C@H](CN(C)C(=O)C2CCC2)[C@@H](C)CN([C@@H](C)CO)S3(=O)=O)c1 | ? | .
CN(C)C(=O)c1ccc(-c2ccc([C@H]3[C@@H](C#N)N(C(=O)Nc4ccccc4F)[C@H]3CO)cc2)cc1 | -5.3 | -6.3
COc1cccc(NC(=O)N2C[C@H](O)COC[C@@H]3O[C@H](CC(=O)NC4CCC4)CC[C@H]32)c1 | 5.9 | 8.7
O=C(O)C1=C[C@@H](c2ccc3c(c2)Cc2ccccc2-3)C[C@@H](OCCCCO)O1 | -3.3 | -6.5
CN1CCCCN2[C@H](CO)[C@H](c3ccc(/C=C/c4ccccc4)cc3)[C@H]2C1 | -31.5 | -24.9
CCCC(=O)Nc1ccc2c(c1)C(=O)N(C)C[C@@H](OC)[C@H](C)CN[C@@H](C)CO2 | -4.8 | -4.0
C[C@@H]1CCCCO[C@H](CN(C)CC2CCCCC2)[C@H](C)CN([C@H](C)CO)C(=O)c2cc(NC(=O)C3CCCCC3)ccc2O1 | ? | .
COCC(=O)N1CC2(CCN(C(=O)c3ccccn3)CC2)c2c(n(C)c3cc(OC)ccc23)[C@H]1CO | -0.7 | -9.0
C[C@H](CO)N1C[C@H](C)[C@@H](CN(C)Cc2ccc(C(=O)O)cc2)Oc2c(NC(=O)Nc3ccc(F)cc3)cccc2C1=O | 11.6 | 2.9
C[C@H](CO)N1C[C@H](C)[C@@H](CN(C)C(=O)Nc2ccc(F)cc2)OCc2ccccc2-c2ccccc2C1=O | 9.1 | 6.8
CN1C(=O)c2cc(NC(=O)C3CCC3)ccc2OC[C@H]2O[C@H](CC(=O)NCCc3ccncc3)CC[C@H]21 | 9.1 | 9.8
C[C@@H]1CN([C@@H](C)CO)C(=O)c2cc(-c3ccc(F)cc3)cnc2O[C@H]1CN(C)Cc1cncnc1 | 5.8 | -1.7
C[C@H](CO)N1C[C@H](C)[C@H](CN(C)Cc2ccc(C(=O)Nc3ccccc3N)cc2)Oc2ccc(NC(=O)Cn3cnnn3)cc2CC1=O | 5.8 | 0.5
C[C@@H]1CN([C@H](C)CO)C(=O)CCCn2nncc2CO[C@@H]1CN(C)C(=O)CCC(F)(F)F | 11.7&5.6 | 10.1&5.3
C[C@@H]1CN([C@@H](C)CO)C(=O)c2cc(-c3ccccc3)cnc2O[C@@H]1CN(C)C(=O)c1ccccc1F | 11.1 | 1.5
C[C@H](CO)N1C[C@H](C)[C@H](CN(C)Cc2ccc(C(=O)O)cc2)Oc2ncc(C3=CCCCC3)cc2C1=O | 19.4 | 17.7
Cc1noc(C)c1NC(=O)N(C)C[C@@H]1Oc2ccc(NC(=O)Cc3cn(C)c4ccccc34)cc2CC(=O)N([C@H](C)CO)C[C@H]1C | 16.4 | -4.1
COc1cccc(NC(=O)N(C)C[C@@H]2Oc3cc(-c4ccccc4OC)ccc3S(=O)(=O)N([C@H](C)CO)C[C@@H]2C)c1 | -29.7 | -17.1
C[C@@H]1CN([C@H](C)CO)C(=O)c2cccc(NC(=O)Nc3ccc4c(c3)OCO4)c2O[C@@H]1CN(C)C(=O)NC1CCCCC1 | ? | .
C[C@H](O)C#Cc1cnc2c(c1)C(=O)N([C@H](C)CO)C[C@@H](C)[C@@H](CN(C)C(=O)Cc1ccccn1)O2 | 11.5 | 9.2

One compound at a time, as listed above. Screens in order: Vaccinia inh, Vaccinia inh Venus
`C[C@H](O)C#Cc1cnc2c(c1)C(=O)N([C@H](C)CO)C[C@@H](C)[C@@H](CN(C)C(=O)Cc1ccccn1)O2` is entered as 11.5, 9.2
`C[C@@H]1CN([C@H](C)CO)C(=O)c2cccc(NC(=O)Nc3ccc4c(c3)OCO4)c2O[C@@H]1CN(C)C(=O)NC1CCCCC1` is entered as ?, .

An excerpt from above in order of count of non-hydrogen atoms, smallest number first.
SMILES | Vaccinia inh | Vaccinia inh Venus
CCNC(=O)C[C@@H]1CC[C@H]2[C@@H](COC[C@H](O)CN2C(=O)C2CC2)O1 | 1.1 | 6.3
C[C@@H]1CN([C@@H](C)CO)C(=O)c2cc(-c3ccc(F)cc3)cnc2O[C@H]1CN(C)Cc1cncnc1 | 5.8 | -1.7
COCC(=O)N1CC2(CCN(C(=O)c3ccccn3)CC2)c2c(n(C)c3cc(OC)ccc23)[C@H]1CO | -0.7 | -9.0
C[C@@H]1CCCCO[C@H](CN(C)CC2CCCCC2)[C@H](C)CN([C@H](C)CO)C(=O)c2cc(NC(=O)C3CCCCC3)ccc2O1 | ? | .

More results.
SMILES | Vaccinia inh | Vaccinia inh Venus
CNC[C@@H]1Oc2cc(C#CCN(C)C)ccc2S(=O)(=O)N([C@H](C)CO)C[C@H]1C | 10.8 | 12.4
Cc1noc(C)c1S(=O)(=O)Nc1ccc2c(c1)C(=O)N([C@@H](C)CO)C[C@@H](C)[C@H](CN(C)Cc1ccc(Cl)c(Cl)c1)OCCCC[C@@H](C)O2 | ? | .
COc1ccc(NC(=O)N(C)C[C@@H]2Oc3c(NS(C)(=O)=O)cccc3C(=O)N([C@@H](C)CO)C[C@H]2C)cc1 | 24.7 | 11.5
O=C(N[C@H]1CC[C@@H](CCNS(=O)(=O)c2ccc(F)cc2)O[C@@H]1CO)c1cccc(F)c1 | -11.6 | -13.6
C[C@H](CO)N1C[C@H](C)[C@H](CN(C)Cc2ccc(C(=O)O)cc2)Oc2ccc(NC(=O)Cc3cn(C)c4ccccc34)cc2C1=O | 4.9 | 2.2
COCC#Cc1ccc([C@H]2[C@@H](CO)N3C(=O)CN(C(=O)C4CC4)C[C@@H]23)cc1 | 3.1 | 6.0
COc1ccc(CN(C)C[C@@H]2OCCCC[C@H](C)Oc3ccc(NC(=O)c4ccccc4)cc3C(=O)N([C@H](C)CO)C[C@H]2C)cc1 | ? | .
CNC[C@H]1Oc2cc(C#Cc3ccncc3)ccc2S(=O)(=O)N([C@@H](C)CO)C[C@@H]1C | -22.4 | -3.8
C[C@@H]1CCCCO[C@@H](CN(C)S(=O)(=O)c2ccccc2)[C@@H](C)CN([C@@H](C)CO)C(=O)c2cc(NC(=O)NC3CCCCC3)ccc2O1 | 11.2 | 9.7
COc1ccc(CN2C[C@H](O)COC[C@H]3O[C@@H](CC(=O)NCc4ccncn4)CC[C@@H]32)cc1 | -0.3 | -0.2
C[C@@H]1CN([C@@H](C)CO)C(=O)Cc2cc(NC(=O)Cc3ccccc3)ccc2O[C@@H]1CN(C)S(=O)(=O)c1cccs1 | 0.9 | 4.5
C/C=C/c1ccc([C@@H]2[C@@H](CN(CCC)C(C)=O)N(C(C)=O)[C@H]2CO)cc1 | -2.4&0.1 | 8.6&0.0
O=C(O)C[C@@H]1CC[C@H]2NC[C@H](O)COC[C@@H]2O1 | 7.1 | 1.8
O=C(N[C@H]1C=C[C@@H](CC(=O)N2CCN(c3ccccc3)CC2)O[C@@H]1CO)c1ccncc1 | -2.9 | 1.7
CNC[C@@H]1Oc2ccc(NC(=O)C3CCCCC3)cc2CC(=O)N([C@@H](C)CO)C[C@@H]1C | 8.7 | 7.8
Cc1noc(C)c1S(=O)(=O)Nc1ccc2c(c1)C(=O)N([C@@H](C)CO)C[C@@H](C)[C@H](CN(C)S(=O)(=O)c1ccc(Cl)cc1)OCCCC[C@H](C)O2 | ? | .
COc1ccc(CN(C)C[C@H]2Oc3ccc(NS(=O)(=O)c4ccc(C)cc4)cc3C(=O)N([C@@H](C)CO)C[C@H]2C)cc1 | -25.1 | -19.5
C[C@@H]1CN([C@H](C)CO)C(=O)c2cc(N(C)C)ccc2O[C@H]1CN(C)Cc1ccc(Cl)c(Cl)c1 | -19.0 | -11.3
C[C@@H]1CN([C@@H](C)CO)C(=O)c2cccc(NC(=O)c3cnccn3)c2O[C@@H]1CN(C)Cc1ccc(Oc2ccccc2)cc1 | -21.9 | -16.0
O=C(N[C@@H]1CC[C@H](CCn2cc(-c3ccccc3)nn2)O[C@H]1CO)c1ccccc1F | -2.3 | 3.9
COCC#Cc1cnc2c(c1)C(=O)N([C@@H](C)CO)C[C@@H](C)[C@H](CN(C)C(=O)Nc1cc(F)ccc1F)O2 | 6.1 | -1.8
O=C(NC1CCC1)[C@H]1[C@H](CO)[C@H]2Cn3c(ccc(-c4ccccc4)c3=O)[C@@H]1N2 | 12.9 | 5.5
C[C@@H]1CN([C@@H](C)CO)C(=O)c2cc(C#CCc3ccccc3)cnc2O[C@@H]1CN(C)Cc1ccccn1 | -12.0 | -14.5
CC(C)NC(=O)N(C)C[C@@H]1Oc2ccc(NC(=O)Nc3cccc4ccccc34)cc2C(=O)N([C@H](C)CO)C[C@@H]1C | 14.7 | 12.7
C[C@H](CO)N1C[C@H](C)[C@H](CN(C)C(=O)Nc2ccc3c(c2)OCO3)Oc2ncc(C#Cc3ccccc3)cc2C1=O | -31.9 | -32.0

Carrying on.
SMILES | Vaccinia inh | Vaccinia inh Venus
COc1ccccc1NC(=O)Nc1ccc2c(c1)C(=O)N(C)[C@H]1CC[C@H](CC(=O)Nc3ccc4c(c3)COC4)O[C@@H]1CO2 | -7.6 | -3.6
CO[C@H]1CN(C)C(=O)c2ccc(NC(=O)Nc3ccc(Cl)cc3)cc2OC[C@@H](C)N(C)C[C@H]1C | -12.5 | -8.8
CCCNC(=O)N1C[C@H](O)COC[C@H]2O[C@H](CC(=O)N3CCOCC3)CC[C@@H]21 | 11.9 | 5.6
CC(C)NC(=O)Nc1ccc2c(c1)C(=O)N([C@@H](C)CO)C[C@H](C)[C@@H](CN(C)S(=O)(=O)c1ccc(F)cc1)OCCCC[C@@H](C)O2 | -0.6 | -0.6
C[C@@H]1CCCCO[C@H](CN(C)Cc2ccccc2)[C@H](C)CN([C@@H](C)CO)C(=O)c2cc(NC(=O)Nc3ccccc3)ccc2O1 | ? | .
O=C(C[C@@H]1CC[C@@H]2[C@H](COC[C@@H](O)CN2Cc2cccc(C(F)(F)F)c2)O1)NCc1ccncc1 | -10.3 | -8.9
C[C@@H]1CN([C@@H](C)CO)S(=O)(=O)c2ccc(C3=CCCCC3)cc2O[C@@H]1CN(C)C(=O)Nc1ccc2c(c1)OCO2 | ? | .
C[C@@H]1CCCCO[C@H](CN(C)C(=O)Cc2ccccc2)[C@@H](C)CN([C@@H](C)CO)C(=O)c2cc(NS(C)(=O)=O)ccc2O1 | 4.6 | 2.0
O=C(O)C[C@@H]1C[C@@H]2c3cc(NC(=O)c4ccc5c(c4)OCO5)ccc3O[C@@H]2[C@H](CO)O1 | 9.6 | 5.2
CCC(=O)Nc1ccc2c(c1)OC[C@H](C)N(CC1CC1)C[C@H](C)[C@H](OC)CN(C)C2=O | 8.6 | 13.4
CO[C@H]1CN(C)C(=O)c2cc(NC(=O)c3nc4ccccc4s3)ccc2OC[C@@H](C)N(Cc2cncnc2)C[C@H]1C | -29.0 | -5.4
COc1ccccc1-c1ccc2c(c1)O[C@H](CN(C)S(=O)(=O)c1ccccc1)[C@@H](C)CN([C@H](C)CO)S2(=O)=O | -28.1 | -20.3
O=C(N[C@H]1CC[C@H](CCNS(=O)(=O)c2ccccc2)O[C@H]1CO)c1cnccn1 | -5.4 | -4.3
CN(C)C(=O)C[C@H]1CC[C@H](NC(=O)c2ccc(F)cc2)[C@@H](CO)O1 | 6.6 | 5.2
C[C@@H]1CN([C@H](C)CO)C(=O)Cc2cc(NC(=O)Cc3cn(C)c4ccccc34)ccc2O[C@@H]1CN(C)C(=O)Nc1ccc(C(F)(F)F)cc1 | -9.4 | 0.8
C[C@@H]1CCCCO[C@H](CN(C)S(C)(=O)=O)[C@H](C)CN([C@@H](C)CO)C(=O)c2cc(NC(=O)Nc3cccc4ccccc34)ccc2O1 | 0.3 | 3.4
C[C@@H]1CCCCO[C@H](CN(C)C(=O)NC2CCCCC2)[C@H](C)CN([C@@H](C)CO)C(=O)c2cc(NC(=O)Nc3ccc4c(c3)OCO4)ccc2O1 | 2.2 | 3.6
CCCNC(=O)Nc1ccc2c(c1)C(=O)N(C)C[C@@H](OC)[C@H](C)CN(C(=O)C1CCCCC1)[C@H](C)CO2 | 3.1 | 0.9
CCCNC(=O)Nc1ccc2c(c1)C(=O)N(C)C[C@H](OC)[C@@H](C)CN(C(C)=O)[C@H](C)CO2 | 11.5 | 12.8
COCCNC(=O)C[C@@H]1CC[C@@H]2[C@H](COC[C@H](O)CN2S(=O)(=O)c2ccccc2C)O1 | -4.8 | -4.9
C[C@@H]1CCCCO[C@@H](CN(C)S(=O)(=O)c2cccs2)[C@H](C)CN([C@@H](C)CO)C(=O)c2cc(NC(=O)Nc3ccc(C(F)(F)F)cc3)ccc2O1 | 1.2 | 1.8
COc1cccc(S(=O)(=O)N(C)C[C@H]2Oc3ncc(C#CCN(C)C)cc3C(=O)N([C@H](C)CO)C[C@@H]2C)c1 | -13.0 | -4.3
C[C@H]1CN([C@@H](C)CO)C(=O)c2cc(C#Cc3cccnc3)cnc2O[C@@H]1CN(C)C(=O)CC1CC1 | 17.0 | 14.8
O=C(NCCN1CCCCC1)[C@@H]1[C@@H](CO)[C@@H]2Cn3c(cccc3=O)[C@H]1N2C(=O)C1CC1 | -2.7 | 2.4
CN1C(=O)c2cc(NC(=O)Nc3ccccc3F)ccc2OC[C@H]2O[C@@H](CC(=O)NCc3ccc(-c4ccccc4)cc3)CC[C@H]21 | 3.6 | 8.7
